# Source: PubChem BioAssay (several laboratories)
# Sa RN4220 lethal: growth inhibition of S. aureus RN4220, primary screen, OD600; 16 h; inhibition, % (no concentration beside the values); 330,000 tested, 0.33% active;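 active means z-score of -3 or lower and OD600 up to 0.18 on both plates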;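 further: plate controls were untreated cells for no effect and reference antibiotic for full effect; stock transfer was 100 nL into about 80 µL; one replicate is shown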
# ugtP null kill: growth inhibition of ugtP-null S. aureus, primary screen, RN4220 ugtP deletion, OD600. growth inhibition, % (test concentration not listed). AID 1259309, 2017. 330,000 tested, 0.54% active. 16 h; some inactives read as strong as hits;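 active means z-score under -3 and OD600 up to 0.15 on both plates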;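 further: plate controls were untreated wells for no effect and antibiotic for full effect; wells of about 80 µL received 100 nL stock; the first replicate is given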
# BJeLR viability: MLPCN primary cell-based screen for lethality selective to Ras in HRASV12 cells. BJeLR (HRASV12) viability, CellTiter-Glo ATP luminescence, 48 h; reference of the scale not given here. inhibition, % (no concentration beside the values). 300,000 tested, 0.17% active;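 active means replicate mean above 50%; inconclusive means above 50% but judged a plate artefact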;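 further: 50 nL library stock added to about 25 µL; numbers are from one replicate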
# Bead autofluor: counter-screen for toxin protease inhibitors: compound fluorescence; 360,000 tested, 3.1% active; fluorescence intensity (no concentration beside the values); compound autofluorescence counterscreen, microsphere flow cytometry; stronger effect = higher value;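 active means at least 3 SD above the mean of all compounds, about 16000 in these data; inconclusive means too few beads counted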;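 further: 100 nL of 1 mM stock went into each well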
# PrP UTR inh: inhibition of PrP 5' UTR reporter expression; inhibition, % (concentration not given with the values); cell-based PrP 5' UTR mRNA reporter, plate reader; AID 488862, 2010; 340,000 tested, 0.35% active;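 active means every replicate at 50% or more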;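 further: 0 = median of the neutral control wells; tested in H4 reporter cells; numbers are from one replicate; inactives centre near -14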
# Mtb hypoxia rep: PubChem AID 1159583. 300,000 tested, 0.1% active. M. tuberculosis hypoxia-regulated fluorescent reporter, fluorescence. fluorescence inhibition, % (no concentration beside the values);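 active means 35 to 45% if threefold the growth effect, above 45% if 1.5-fold the growth effect; inactive means the rest, general growth blockers included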;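 further: wells of about 50 µL received 100 nL stock; 0% = vehicle wells and 100% = reference inhibitor wells; whole bacteria with a GFP reporter of the hypoxia response; strong numbers were not always called active; many hits fall short of the cut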
# Mtb hypoxia rep growth: further read-out of Mtb hypoxia rep, marked with its call; growth inhibition, %; measured here: M. tuberculosis growth (absorbance);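 0% = vehicle and 100% = reference antibiotic; read after six days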
# * marks the source's active call; other numbers are inactive results; u = inconclusive; x = not tested or not shown. This is a random part of the collection. Share with any hit: about 4%.
# The first 4 compounds (preview)
SMILES,Sa RN4220 lethal,ugtP null kill,BJeLR viability,Bead autofluor,PrP UTR inh,Mtb hypoxia rep,Mtb hypoxia rep growth
C/C(=N\NC(=O)CNC(=O)C(c1ccccc1)c1ccccc1)c1ccccc1,x,x,7,2065,-23,x,x
Nc1ccc(Cc2ccc(N)c(Cl)c2)cc1Cl,1.5,2,x,5044,-10,8,13
CC(=O)Nc1ccc(S(=O)(=O)N(C)c2ccc(OCC(=O)OCC(=O)Nc3ccc(OC(F)F)cc3)cc2)cc1,5.8,13,-9,4644,-11,-7,-1
Cn1nnnc1SCc1nc2ccccc2[nH]1,3.7,-3,0,3787,-14,x,x

# Results, from the start:
SMILES,Sa RN4220 lethal,ugtP null kill,BJeLR viability,Bead autofluor,PrP UTR inh,Mtb hypoxia rep,Mtb hypoxia rep growth
C/C(=N\NC(=O)CNC(=O)C(c1ccccc1)c1ccccc1)c1ccccc1,x,x,7,2065,-23,x,x
Nc1ccc(Cc2ccc(N)c(Cl)c2)cc1Cl,1.5,2,x,5044,-10,8,13
CC(=O)Nc1ccc(S(=O)(=O)N(C)c2ccc(OCC(=O)OCC(=O)Nc3ccc(OC(F)F)cc3)cc2)cc1,5.8,13,-9,4644,-11,-7,-1
Cn1nnnc1SCc1nc2ccccc2[nH]1,3.7,-3,0,3787,-14,x,x
Cc1ccc(S(=O)(=O)CCC(=O)OCC(=O)NCCc2ccc(S(N)(=O)=O)cc2)cc1,1.8,1,x,5914,-13,6,12
CN(C)S(=O)(=O)c1ccc(C(=O)OC2CCOC2=O)cc1 (stereo not drawn),3.9,-6,1,5739,-19,-2,3
CC1=C(C(=O)Nc2cccc(C(=O)NC3CCCCC3C)c2)SCCO1 (stereo not drawn),2.4,-1,-4,5883,4,4,-1
CC(C)(C)NC(=O)NC(=O)COC(=O)Cc1ccc(Cl)cc1Cl,1.2,12,-4,3285,-14,5,2
CCCCCOc1ccc(N2C(=O)C(C)CNC2=S)cc1 (stereo not drawn),1.2,6,10,x,x,2,-7
C=CCN1C(=O)C2(c3ccccc31)C1CCCC=C1C(C#N)=C(N)C2(C#N)C#N (stereo not drawn),-3.1,-17,0,9585,-5,-14,6
O=C(NC(CCl)c1ccccc1)c1ccc(Cl)cc1 (stereo not drawn),6.9,11,-7,2075,-11,5,-3
CN(CC(=O)Nc1ccc(F)cc1)C(=O)c1cn(-c2ccccc2)nc1-c1cccs1,-0.2,-4,x,8419,-12,4,3
O=C(CSc1nc(-c2ccccc2)cs1)NCc1ccco1,0.8,-2,-4,2422,-13,x,x
O=C(Nc1cccc2c1CCCC2)c1ccncc1,-0.1,5,-2,6200,-7,15,6
O=C1CC2(CCN(C(=O)c3ccccc3Cl)CC2)Oc2ccccc21,0.8,7,-2,4586,-5,4,8
Cc1ccc(C)c2c1cc(C)c1nnc(SCc3ccccn3)n12,5.1,-4,0,26246*,-18,19,12
CCN(CC)c1ccc(-c2nnc(SCC(=O)Nc3ccccc3C#N)n2-c2ccccc2)cc1,14,-5,4,3275,-2,1,6
Cc1cc(NC(=O)NC(=O)c2ccc(F)cc2F)n[nH]1,3.5,2,0,2769,-26,13,5
CN(C)c1ccc(/C=C/C=NNc2nc(N3CCOCC3)nc(N3CCOCC3)n2)cc1,-3.2,-7,x,x,x,-2,4
Cc1ccc(C)c(N2CCN(C(=O)c3ccc(CS(=O)Cc4cccc(Cl)c4)o3)CC2)c1 (stereo not drawn),0.8,98*,18,4860,-1,1,-2
Cc1ccc(-c2n[nH]c(S(C)(=O)=O)c2C#N)cc1,6.3,6,-6,4304,-17,-4,9
COc1cccc(-n2c(CN3CCN(c4ccccn4)CC3)nc3ccc([N+](=O)[O-])cc3c2=O)c1,0.1,6,0,4900,-28,12,16
CCOC(=O)c1cccc(NC(=O)CN2C(=O)C3CC=CCC3C2=O)c1 (stereo not drawn),4.3,3,-9,5653,-1,5,2
CCC(=O)Nc1nnc(/C=C/c2ccccc2)s1,0.6,0,-5,3489,-46,2,3
COc1ccc([N+](=O)[O-])cc1N(CC(O)CN(C)C)S(=O)(=O)c1ccccc1 (stereo not drawn),1.1,3,11,9854,-10,0,3
CC(Cc1cccs1)NC(=O)Nc1ccc(Cl)c(Cl)c1 (stereo not drawn),18,-21,3,4075,-39,-3,1
Cn1cnc(S(=O)(=O)Nc2ccccc2C(=O)NCC2CC2)c1,-0.3,9,-4,5888,0,-3,-3
Cc1ccc(S(=O)(=O)Nc2cc(NC(=O)CN3CCOCC3)ccc2Cl)cc1,6.2,15,2,3088,-11,19,2
Cc1ccccc1CNC(=O)CN1C(=O)c2ccccc2S1(=O)=O,1.5,8,-7,3800,-4,-8,-5
COc1ccccc1NC(=O)N1CCc2[nH]c3ccc(F)cc3c2C1,-0.4,-8,0,4335,1,x,x

# Quoted at random: 2 entries already listed, in no set order.
SMILES,Sa RN4220 lethal,ugtP null kill,BJeLR viability,Bead autofluor,PrP UTR inh,Mtb hypoxia rep,Mtb hypoxia rep growth
CC(Cc1cccs1)NC(=O)Nc1ccc(Cl)c(Cl)c1 (stereo not drawn),18,-21,3,4075,-39,-3,1
COc1cccc(-n2c(CN3CCN(c4ccccn4)CC3)nc3ccc([N+](=O)[O-])cc3c2=O)c1,0.1,6,0,4900,-28,12,16

# (listing goes on)
SMILES,Sa RN4220 lethal,ugtP null kill,BJeLR viability,Bead autofluor,PrP UTR inh,Mtb hypoxia rep,Mtb hypoxia rep growth
OCCNc1nc(-c2ccccc2)c2ccccc2n1,x,x,-2,2131,-2,x,x
COc1ccc(-c2nc(-c3ccccc3)c(-c3cc([N+](=O)[O-])ccc3C)[nH]2)cc1OC,-3.2,12,-3,2057,-27,x,x
O=C(CN1CCN(S(=O)(=O)c2ccccc2)CC1)Nc1ccnn1C1CCCC1,1.6,-1,x,u,6,-10,-1
CCn1ccnc1CN1CCCC(C(=O)c2cc(Cl)ccc2OC)C1 (stereo not drawn),-0.1,-2,-5,4607,-7,-5,0
CC1(c2ccc(O)cc2)NC(=O)N(c2ccccc2)N1 (stereo not drawn),1.8,10,-2,2516,-17,3,10
Clc1ccccc1/C=C/c1ccnc2ccccc12,10,57,2,3640,-21,2,-5
O=C(O)c1cccnc1Sc1ccccc1Cl,3.8,6,-5,6405,-31,6,-1
CCOc1cc(C=NN2CCCCCC2)ccc1O,3.2,14,x,3494,-24,19,12
COc1cc(SC)ccc1C(=O)NC(C)C,4.2,8,-4,2368,-14,11,5
O=C(NC(=O)c1ccc(F)cc1)Nc1nc(-c2cccs2)cc(C(F)(F)F)n1,1.4,4,7,5800,9,-2,-2
COc1ccccc1NS(=O)(=O)c1cccc(C(=O)N/N=C/c2ccc(C)o2)c1,x,x,-2,3604,-6,x,x
Cc1c(Cl)ccc(S(=O)(=O)N2CCN=C2c2ccccc2)c1Cl,8.3,22,16,2008,-12,11,5
Cc1cccc(-n2nnnc2SCC(=O)NC2CCCC2)c1,1.6,-2,x,2882,-3,1,4
CCCCN(C(=O)c1cccc(S(=O)(=O)N(C)c2ccc(C)cc2)c1)c1c(N)n(CCCC)c(=O)[nH]c1=O,0.7,1,2,x,-13,-1,-4
O=C(C1CCCO1)N1CCN(C(=S)Nc2ccc(Cl)c(Cl)c2)CC1 (stereo not drawn),2.1,4,-14,2064,-2,0,4
CCn1c(C)nc2cc(C(=O)OCCC(F)(F)F)ccc21,0.8,-1,7,2882,-13,-6,8
Cc1ccc(S(=O)(=O)NNC(=O)CCC(=O)Nc2ccc(C)cc2C)cc1,5.0,-1,12,2256,-21,-3,8
O=C1Nc2ccccc2Oc2cc([N+](=O)[O-])cc(Oc3ccccc3)c21,93*,86,4,4500,-16,4,2
Cc1ccc(N=Nc2cc(C)ccc2N)cc1,6.7,9,19,5537,-39,4,13
COc1ccc(CCN(C)C(=O)CN2C(=O)NC3(CCCCC3C)C2=O)cc1OC (stereo not drawn),1.9,7,-4,6149,3,-7,-2
Cc1ccc(NC(=O)CSc2nc3ccccc3c(=O)n2CCCC(=O)N2CCCC2)cc1,2.8,-8,-4,22956*,-13,-2,13
Cn1nccc1C(=O)Nc1ccc(S(=O)(=O)N2CCCC2)cc1,x,x,-6,4418,-1,x,x
CCCCC(=O)N/N=C(\C)CC(=O)Nc1ccccc1Br,x,x,21,2448,-2,x,x
COc1ccccc1C=NNC(=O)CC(=O)Nc1ccc(Cl)c(Cl)c1,15,9,x,x,x,2,-1
COc1ccc(N2CCOCC2)c(NC(=O)c2cccs2)c1,1.5,0,9,5881,-3,-4,3
CC(=O)Nc1ccc(C(C)=NNC(=O)c2ccc(COc3ccccc3Cl)o2)cc1,1.9,6,x,x,x,2,12
C=C1CCC[C@]2(C)C[C@H]3OC(=O)C(CNCCN(C)C)[C@H]3CC12 (stereo partly drawn),-0.2,-6,0,3623,-12,5,6
CC(=O)O[C@H]1CC[C@@]2(C)[C@@H](CC[C@@H]3[C@@H]2CC[C@]2(C)[C@@H](C(C)(C)O)C[C@@H]32)C1,x,x,4,4274,-19,x,x
Cc1cc(C)c(C#N)c(N2CCN(CCOc3ccc(Cl)cc3)CC2)n1,-16,-5,4,11380,-23,-5,4
O=C(CCn1cnc2ccccc2c1=O)Nc1ccc2c(c1)OCCO2,-0.8,3,10,4575,4,x,x
COc1ccc(N(C(C)C(=O)N2CCCC2)S(C)(=O)=O)cc1 (stereo not drawn),3.1,4,-5,3725,-19,3,-3
O=c1[nH]c(=O)n(Cc2ccc(F)cc2)c(O)c1/C=N/Nc1ccccc1,2.7,6,-6,5876,-7,13,5
COc1ccccc1C1CC(=O)Oc2cc(C)c(Cl)c(C)c21 (stereo not drawn),0.9,28,x,3590,-19,-1,6
Cc1cccnc1CNC(=O)C1CCC(=O)N(CCc2cccc(F)c2)C1 (stereo not drawn),2.0,1,-6,5393,-12,13,3
CCN(CC)C(=O)CSC1=N/C(=C/c2ccco2)C(=O)N1c1ccc(OC)c(Cl)c1,x,x,2,8259,-33,x,x
CCOC(=O)c1ccc(NC(=O)c2cnccn2)cc1,3.0,0,13,8197,-21,4,7
COc1ccc(/C=C(/NC(=O)/C=C/c2ccccc2)C(=O)NCCCCCC(=O)O)cc1,-0.5,-3,-4,4426,-24,10,-10
O=C(NC1CCS(=O)(=O)C1)/C(=C\c1ccc(F)cc1)NC(=O)c1ccccc1 (stereo not drawn),3.7,5,15,4784,-24,5,10
O=C1C=C(c2cc(C(F)(F)F)cc(C(F)(F)F)c2)C[C@@H](c2ccc3c(c2)OCO3)C1,-18,37,x,3004,-4,8,9
O=C(NCCCN1CCN(c2ccccc2F)CC1)Nc1ccccc1[N+](=O)[O-],2.7,3,10,3527,-6,11,8
Cc1c(C(=O)N/N=C/c2ccc(Cl)cc2)[nH]c2ccc(Cl)cc12,x,x,7,2049,61*,x,x
O=C(COc1ccc(S(=O)(=O)N2CCOCC2)cc1)NCC1CCCO1 (stereo not drawn),1.7,0,5,5128,-15,-1,-5
CCCCn1c(N)c(N(CCOC)C(=O)COC(=O)/C=C/c2ccc(Br)cc2)c(=O)[nH]c1=O,-1.6,-6,6,6020,-5,-3,2
COC(=O)N/N=C/c1ccc(-c2ccc(Cl)cc2Cl)o1,x,x,2,3480,-6,x,x
COc1ccc(N2CCN(C(=O)Cn3cncn3)CC2)cc1,9.7,6,3,3336,-11,8,-5
COc1ccc(Oc2ccccc2C=O)cc1,16,-7,2,2547,-7,14,4
N/C(=N/OCC(=O)Nc1cccc2ccccc12)c1nonc1N,x,x,4,17291*,14,x,x
N[C@@H](Cc1ccccc1)C(=O)N1CCC(C(=O)NCC(=O)NCC(=O)O)CC1,1.7,10,9,4249,-28,-3,-3
COc1cc(-c2nnc(COC(=O)c3cc(C)nc4ccc(C)cc34)o2)cc(OC)c1OC,-4.1,-5,0,4890,3,x,x
COCCCNc1nc2c(c(=O)[nH]c(=O)n2C)n1CC(O)COc1cccc(C)c1 (stereo not drawn),4.4,1,3,3784,-10,x,x
COc1ccccc1Oc1ccc2c(c1)C(=O)N(c1cccc3ncccc13)C2=O,1.8,3,3,2047,-27,1,2
O=c1c2cc(Br)ccc2nc(-c2cccc(Cl)c2)n1O,x,x,2,3669,-13,x,x
COc1ccccc1Oc1ncnc2c1oc1ccccc12,4.9,-2,-3,4750,-6,11,3
CCc1ccc(NC(=O)NCC2CCN(Cc3cccc(Cl)c3)CC2)cc1,-0.8,3,-3,3707,-5,-10,9
